# From PubChem
# KAT2A inh: GCN5L2 (KAT2A) acetyltransferase inhibition; GCN5L2 HAT assay, ThioGlo1 CoA-SH fluorescence; Potency, µM (top dose mostly 58.9 µM), inactives show at the highest dose activity change, negative = inhibition, most hits filed as inhibitors; 0.21% of 390,000 active; AID 504327; active = well fitted inhibition curve with a large enough effect; inconclusive = small, poorly fitted or top-dose-only effect, or another doubt; inactive = no such curve, though single readings can be large or run the other way
# Target sequence (Q92830 whole entry, looked up): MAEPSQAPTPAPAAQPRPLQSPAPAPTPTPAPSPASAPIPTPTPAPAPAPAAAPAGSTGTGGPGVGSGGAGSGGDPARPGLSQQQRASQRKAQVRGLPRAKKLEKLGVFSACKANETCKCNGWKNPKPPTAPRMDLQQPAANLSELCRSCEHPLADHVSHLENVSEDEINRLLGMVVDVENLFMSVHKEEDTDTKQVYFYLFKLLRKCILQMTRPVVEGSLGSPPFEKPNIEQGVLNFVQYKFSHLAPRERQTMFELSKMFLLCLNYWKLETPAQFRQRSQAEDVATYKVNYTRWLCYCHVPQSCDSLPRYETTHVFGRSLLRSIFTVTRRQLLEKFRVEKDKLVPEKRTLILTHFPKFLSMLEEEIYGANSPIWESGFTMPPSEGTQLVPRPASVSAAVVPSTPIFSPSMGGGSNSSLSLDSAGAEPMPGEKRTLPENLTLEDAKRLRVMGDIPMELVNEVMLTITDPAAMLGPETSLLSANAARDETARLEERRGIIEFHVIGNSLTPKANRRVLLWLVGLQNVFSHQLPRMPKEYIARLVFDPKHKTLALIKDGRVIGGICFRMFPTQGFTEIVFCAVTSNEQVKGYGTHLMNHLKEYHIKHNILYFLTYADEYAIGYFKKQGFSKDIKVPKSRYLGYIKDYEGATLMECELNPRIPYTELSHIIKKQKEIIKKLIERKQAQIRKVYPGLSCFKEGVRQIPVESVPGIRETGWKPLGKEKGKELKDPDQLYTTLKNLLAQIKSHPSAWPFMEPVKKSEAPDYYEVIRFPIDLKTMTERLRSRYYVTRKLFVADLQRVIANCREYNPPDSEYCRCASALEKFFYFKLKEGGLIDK
#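 Preincubate 20nM GCN5L2 with compound 15 min, RT → add 50uM ThioGlo1 + 75uM H3(1-25) + 70uM acetyl-CoA → read fluorescence 0 and 20 min. Primary qHTS; fluorescent artifacts likely.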
# Starred values were filed as active, the others as inactive; u = inconclusive; & = joins results of further samples. % is set by controls: 0 for no effect and ±100 for the full control effect; potency is the fitted concentration of half-maximal effect. An excerpt; most or all hits stand in other tables.
Compound	KAT2A inh
CN(CC(=O)Nc1c(Cl)cccc1Cl)C(=O)CC1Sc2ccccc2NC1=O (centres undefined)	0%
CCCn1c(=S)[nH]c2cc(C(=O)N3CCc4ccccc43)ccc2c1=O	1%
Cc1ccc(N2C(=O)C(CC(=O)Nc3ccc(F)cc3)N(CCC3=CCCCC3)C2=O)cc1 (centres undefined)	-7%
O=C1CCSc2cccc3cccc(c23)N1	-1%
O=C1N=C(N2CCN(c3cccc4ccccc34)CC2)S/C1=C/c1cccs1	-5%
O=C(c1ccc(Br)s1)N1CCCC1	-11%
O=C(O)COc1ccc(C(=O)Cc2ccc3c(c2)OCCCO3)c(O)c1	-3%
CCC(C(=O)NNC(=O)c1cnccn1)c1ccccc1 (centres undefined)	-2%
O=C1CN(C(=O)c2cc([N+](=O)[O-])ccc2Cl)C(c2ccccc2)c2cc(F)ccc2N1 (centres undefined)	-4%
Cc1nn(-c2cccc(Cl)c2)nc1C(=O)O	-8%

# More structures follow:
Compound	KAT2A inh
COc1cc(/C=C(/C#N)c2ccccc2)ccc1Oc1ccc([N+](=O)[O-])cn1	-2%
Cc1ccc(C)c(NC(NC(=O)c2ccccn2)C(Cl)(Cl)Cl)c1 (centres undefined)	0%
O=C(O)c1ccc(CSc2nnc(-c3ccncc3)n2-c2ccc(Cl)cc2)cc1	0%
Nc1nc(Nc2ccccc2F)nc(NCCO)c1[N+](=O)[O-]	-6%
O=C1C=C(NCc2ccccc2)C2(CCCCC2)O1	4%
COc1cc(CCC(O)CC(=O)CCc2ccccc2)ccc1O (centres undefined)	9%
CCOc1cc(C(=O)Nc2ccncc2)cc(OCC)c1OCC	-6%
CCOc1cccc(-c2nnc3sc(-c4ccco4)nn23)c1	1%
COc1ccc(-c2ocnc2C(=O)NCc2nn(-c3ccccc3)nc2C)cc1	-3%
COc1cc(S(=O)(=O)NCc2ccccc2)ccc1-n1cnnn1	1%

# (list continues)
Compound	KAT2A inh
O=C(c1nn(Cc2ccccc2)c(=O)c2ccccc12)N1CCN(C/C=C/c2ccccc2)CC1	-7%
COc1ccc(C(=O)NCCNC(C)=O)cc1S(=O)(=O)NCc1ccc(Cl)cc1	-12%
O=C(Nc1sc2c(c1C(=O)NCc1ccco1)CCCC2)c1ccc2c(c1)OCO2	-20%
CC(=O)NC(Cc1c[nH]c2ccccc12)C(=O)NCCc1ccccn1 (centres undefined)	-5%
Cc1c(Cl)cccc1NC(=O)CSc1nc(=O)n(CCN2CCOCC2)c2c1CCC2	-7%
NC(=O)NN=C1C2CCCC1C(c1ccccc1)NC2c1ccccc1 (centres undefined)	-8%
CCOc1ccccc1OCC(=O)N/N=C(\C)Cc1ccc(OC)cc1	2%
O=C1NC(=O)C(c2cccs2)(c2cccs2)N1	1%
COc1ccc(NC(=O)CCc2ccccc2)cc1S(=O)(=O)N1CCCCC1	-7%
O=C(CSc1ncccn1)N1CCc2ccccc2C1	0%

# Next records:
Compound	KAT2A inh
Cc1cccc(NC(=O)c2ccc(NCC3CCCO3)c([N+](=O)[O-])c2)n1 (centres undefined)	-5%
CCOC(=O)c1cc(-c2ccccc2)nn1CCC#N	-15%
COc1ccc(C2(O)CCN(C(=O)c3c(F)cccc3F)CC2)cc1	-7%
Cc1cc(C)nc(/N=C(\N)Nc2ccc(C(C)C)cc2)n1	-2%
Cc1ccc(C)c(C(=O)COC(=O)CN2C(=O)C3C4CCC(C4)C3C2=O)c1 (centres undefined)	-1%
O=C(NC1CCCC1)C(c1ccccc1F)N(C(=O)Cc1cccs1)c1ccc2c(c1)OCCO2 (centres undefined)	-7%
O=C(c1ccc2c(c1)OCO2)C1CCCN(C(=O)Nc2ccc(F)cc2F)C1 (centres undefined)	-6%
COc1ccc(/C=N/Nc2nncc3ccccc23)cc1	27%
O=c1c2c3c(sc2nc(N2CCNCC2)n1CCc1ccccc1)CCCCC3	-7%
O=C(CSC1=Nc2ccccc2C2=NC(CC(=O)NC3CCCCC3)C(=O)N12)NCc1ccco1 (centres undefined)	-11%

# 6 of the entries above in order of their number in KAT2A inh, high to low:
Compound	KAT2A inh
Cc1ccc(C)c(C(=O)COC(=O)CN2C(=O)C3C4CCC(C4)C3C2=O)c1 (centres undefined)	-1%
Cc1cc(C)nc(/N=C(\N)Nc2ccc(C(C)C)cc2)n1	-2%
O=C(c1ccc2c(c1)OCO2)C1CCCN(C(=O)Nc2ccc(F)cc2F)C1 (centres undefined)	-6%
COc1ccc(C2(O)CCN(C(=O)c3c(F)cccc3F)CC2)cc1	-7%
O=C(CSC1=Nc2ccccc2C2=NC(CC(=O)NC3CCCCC3)C(=O)N12)NCc1ccco1 (centres undefined)	-11%
CCOC(=O)c1cc(-c2ccccc2)nn1CCC#N	-15%

# (list continues)
Compound	KAT2A inh
CCOC(=O)c1cnc(N2CCN(c3ccc(OC)cc3)CC2)c2ccccc12	-6%
CC(C)(C)C(=O)/C=c1\[nH]c(=O)/c(=C\c2ccc(F)cc2)s1	-3%
NC(=O)c1cccn(Cc2ccc(C(F)(F)F)cc2)c1=O	3%
Fc1cccc2sc(N3CCCC3)nc12	3%
CCOC(=O)N1CCC(Nc2c(NCCN3CCN(Cc4ccccc4)CC3)c(=O)c2=O)CC1	-5%
CC(=O)c1cccc(NC(=O)c2cnn(-c3cccc(C)c3)c2-n2cccc2)c1	2%
O=C(CSc1nnc(Nc2ccccc2F)s1)NC1CC1	-1%
CCOC(=O)c1c(C)n(-c2ccccc2)c2ccc(OC(=O)COc3ccc(Cl)cc3)cc12	0%
O=C(CNC(=O)C1CCCCC1)Nc1ccccc1Cl	-6%
CCCc1nnc(SCC(=O)Nc2ccccc2Cl)n1CC1CCCO1 (centres undefined)	-2%

# Next records:
Compound	KAT2A inh
O=c1oc(C2(O)CCCCC2)cc2ccc(Br)cc12	-3%
NC(=O)c1ccsc1NC(=O)CSc1ncnc2sccc12	1%
CCCc1cc(C(=O)Nc2cccc(C(C)=O)c2)no1	-7%
O=c1c2ccccc2nc(-c2ccc(F)cc2)n1NCc1ccccc1O	0%
CCc1nc2ccccc2n1CC(O)COc1ccc(NC(C)=O)cc1 (centres undefined)	-4%
CC1=C(c2ccc(C)cc2)S(=O)(=O)N(Cc2ccc(C(=O)NCc3ccccc3F)cc2)C1=O	-2%
O=C(C[n+]1cn(C(F)F)c2ccccc21)c1ccc(OC(F)F)cc1	-4%
CC(NC(=S)Nc1ccccc1Cl)C(c1cccs1)N1CCCC1 (centres undefined)	-5%
O=C(COc1ccc([N+](=O)[O-])cc1)NN=C1CCCC1	0%
Cn1c(CCN2CCOCC2)nc2cc(NC(=O)c3cccs3)ccc21	-9%

# (list continues)
Compound	KAT2A inh
CN(C)C=NC(=O)c1cc(C(=O)c2ccc(F)cc2)c[nH]1	u
Cn1ccc(NC(=O)c2ccc(Cl)cc2Cl)n1	-18%
Cc1c(C(=O)NC(C)C)sc2ncn(CC(=O)N3CCC(C)CC3)c(=O)c12	-1%
CC(C(=O)Nc1nccs1)N1C(=O)C2CC=CCC2C1=O (centres undefined)	-10%
Cn1ccnc1C(O)c1ccc(OCc2ccccc2)cc1 (centres undefined)	-5%
Cc1ccc2nc(CSc3nnc(Nc4ccccc4C)s3)cc(=O)n2c1	-1%
COc1cc(C2c3c(c(C)c(C)oc3=O)Oc3c(C)c(C)oc(=O)c32)ccc1OS(=O)(=O)c1ccc(C)cc1	0%
COC(=O)C(C(=O)OC)=C(/C=C/C=C/N(C)C)N(C)C	-4%
O=C(CN(c1ccc(Cl)cc1)S(=O)(=O)c1ccc(Cl)c([N+](=O)[O-])c1)NCCc1ccc(F)cc1	-3%
CCN(C(=O)COC(=O)c1ccc(COc2ccc3c(C)cc(=O)oc3c2)cc1)C1CCS(=O)(=O)C1 (centres undefined)	-1%

# The list continues.
Compound	KAT2A inh
CN(C)/C=C(\C#N)C(=O)N/N=C/c1ccc(Cl)cc1	-11%
CCOC(=O)c1cc(NC(=O)CN2CCCC2)cc(C(=O)OCC)c1	-3%
CC1CCCN(C(=O)C2c3ccccc3C(=O)N3CCc4ccccc4C23)C1 (centres undefined)	1%
CN(C(=O)CSc1nc2cc(Cl)ccc2c(=O)n1Cc1ccco1)C1CCS(=O)(=O)C1 (centres undefined)	-12%
Cc1ccc(-n2nc3c(N4CCC(C(=O)N5CCC(C(N)=O)CC5)CC4)nnc(C)c3c2C)cc1	-4%
Cc1noc(C)c1S(=O)(=O)Nc1ccccc1OC(F)(F)F	-1%
O=C(COC(=O)c1ccc2[nH]c3c(c2c1)CCCC3)Nc1ccccc1	-14%
O=c1[nH]cnc2cc(Cl)ccc12	-3%
CC(Sc1ccccc1)C(=O)Nc1ccc(N2CCOCC2)cc1 (centres undefined)	-5%
COc1ccc(S(=O)(=O)N2CCCC(C(=O)NC3CC3)C2)cc1Cl (centres undefined)	-3%

# Additional compounds:
Compound	KAT2A inh
Brc1cccc(CN2CCCCCCC2)c1	-1%
Nc1ncn([C@@H]2O[C@H](CO)[C@@H](O)[C@H]2O)c(=O)n1	u
NS(=O)(=O)c1ccc(-c2ccc(C=NC3CCS(=O)(=O)C3)o2)cc1 (centres undefined)	2%
CCOc1ccccc1C1C(C(=O)N2CCCCC2)=C(C)Nc2nc3ccccc3n21 (centres undefined)	-7%
CCc1c(C)sc(NC(NC(C)=O)(C(=O)OC)C(F)(F)F)c1C#N (centres undefined)	-2%
CCOC(=O)C(CCc1ccccc1)NC(C)C(=O)N1CCCC1C(=O)O (centres undefined)	0%
COc1ccccc1N1CCN(C(=O)CSc2nc3ncnc(N)c3[nH]2)CC1	0%
Cn1cnc(S(=O)(=O)N2CCCC(C(=O)NCc3ccccc3)C2)c1 (centres undefined)	22%
CCOc1ccc(S(=O)(=O)N(C)c2ccc(OCC(=O)NC3=NCCS3)cc2)cc1	-2%
COc1ccc2[nH]c3c(=O)n(N)c(C)nc3c2c1	-5%

# Compounds listed so far that have a CF3 group (three):
Compound	KAT2A inh
NC(=O)c1cccn(Cc2ccc(C(F)(F)F)cc2)c1=O	3%
Cc1noc(C)c1S(=O)(=O)Nc1ccccc1OC(F)(F)F	-1%
CCc1c(C)sc(NC(NC(C)=O)(C(=O)OC)C(F)(F)F)c1C#N (centres undefined)	-2%

# (next part)
Compound	KAT2A inh
CCCc1cc(=O)[nH]c(SCC(=O)OCc2ccccc2)n1	-5%
CC(=O)Nc1ccc(Oc2nc(C)cc(C)n2)cc1	-3%
O=C(Nc1cccc(-c2nc3cc(Cl)ccc3o2)c1)c1cc([N+](=O)[O-])ccc1N1CCOCC1	-2%
CCNc1nnc(-c2ccncc2)s1	-12%
C=CCOc1ccc(-c2nc3c(c(=O)[nH]c(=O)n3Cc3ccccc3)n2CCCOC)cc1	-3%
CCCCNC(=O)CCc1c(C)nc2cc(-c3ccccc3)nn2c1C	0%
COc1cccc2cc(-c3cc(=O)oc4cc(C)c(O)cc34)oc12	-9%
O=C(NN=C1CCCCCC1)c1cc2ccccc2cc1O	-4%
C=CCSc1nnc(NC(=O)c2cccc(S(=O)(=O)N(C)c3ccccc3)c2)s1	0%
O=C(Nc1ccccc1)c1cnc(N2CCCCC2)c2ccccc12	2%

# (next part)
Compound	KAT2A inh
O=C(NCc1ccc(F)cc1)C(c1cccs1)N(C(=O)c1csnn1)C1CC1 (centres undefined)	2%
Cc1nn(Cc2ccc([N+](=O)[O-])cc2)c(=O)n1-c1cccc(F)c1	1%
CCS(=O)(=O)N1CCc2cc(C(=O)N3CCN(c4ccccc4OC)CC3)ccc21	-6%
Cc1ccc(SCCC(=O)NCC2CCCO2)cc1 (centres undefined)	3%
O=C1CC[C@@H](C(=O)N2CSC[C@H]2C(=O)O)N1	2%&-2%
Cc1c(CNCC(C)c2ccccc2)c(C(=O)O)c(C)n1Cc1ccccc1 (centres undefined)	-3%
Cc1cc(=O)nc2c3ccccc3n(C(C)C(=O)Nc3c(F)c(F)c(F)c(F)c3F)n12 (centres undefined)	-1%
COc1ccc(OC)c(CCNC(=O)CN2C(=O)CC(C)(C)S(=O)(=O)c3ccccc32)c1	-3%
Cc1ccc2cc(/C=N/NC(=O)[C@H]3C[C@@H]3c3ccccc3)c(Cl)nc2c1	-2%
C/C(=N\NC(=O)Cc1ccc(F)cc1)c1ccc(F)cc1	-4%

# (list continues)
Compound	KAT2A inh
CCN(CC(=O)Nc1c(F)cccc1F)C(=O)c1ccc(N2CCCCC2)c([N+](=O)[O-])c1	-5%
COc1cc(C2=NOC(C(=O)N3CCCc4ccccc43)C2)cc(OC)c1OC (centres undefined)	1%
CCCSc1n[nH]c(NC(C)=O)n1	-6%
CCOc1ccc(-c2nc(Cn3c(=O)cc(-c4ccccc4)c4c(C)nn(C)c43)c(C)o2)cc1OC	-6%
C=CCN(CC=C)CCCOc1ccccc1C(=O)OC	-2%
CCCCNC(=O)c1ccccc1NC(=O)c1ccccc1N(C)S(C)(=O)=O	-6%
c1ccc(C2CC(c3ccccc3)C(c3ccccc3)N2)cc1 (centres undefined)	-1%
COc1ccccc1NCc1cc(=O)oc2c(C)c(O)ccc12	-16%
CCCC(=O)Nc1ccccc1Sc1ncnc2scc(-c3ccccc3)c12	-4%
COC(=O)c1sc(-c2ccccc2)cc1NC(=O)c1cccc(F)c1	-12%

# (next part)
Compound	KAT2A inh
Cn1ccnc1SCC(=O)NCC(=O)Nc1ccc(F)c(F)c1F	-10%
NC1=NC(=O)/C(=C/c2cn(CCC(=O)O)nc2-c2ccc(F)cc2)S1	-11%
CCCCc1cc(=O)oc2cc(OC(C)C(=O)NCCN3CCOCC3)c(Cl)cc12 (centres undefined)	-5%
CCc1cccc(OCCn2nc(C(=O)O)c3ccccc3c2=O)c1	-14%
Cc1nc2ccccc2cc1C(=O)N/N=C/c1cccc([N+](=O)[O-])c1	2%
